Yeast UUG start: modulators of yeast start codon fidelity, primary screen, whole organism, S. cerevisiae, single point, plate reader | S. cerevisiae UUG-firefly luciferase reporter, luminescence/redox ratio | activity score, % at 18.7 µM | hit rate 0.13% among 350,000 | AID 602363, 2012;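 active = replicate mean at a twofold rise or more, about +100% in these data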;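 note: firefly luciferase made from a UUG start codon reports start codon fidelity; reporter light over untreated wells divided by growth signal over untreated wells; some hits fall short of that in this replicate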
CSC inhib: cancer stem cell viability inhibitors, primary screen, luminescence. cancer stem cell-like cells viability. inhibition, % at 7.5 µM. hit rate 1.1% among 300,000;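 active = mean at 75% or more and at least half the replicates too; inconclusive = mean and replicates disagree; tested in HMLE shEcad cells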;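 note: 0% = median of negative and 100% = median of positive control wells; the first replicate is given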
eIF4H FP inh: human eIF4H binding inhibitors, primary screen, translation initiation inhibitor project, biochemical, uHTS, fluorescence polarization; eIF4H fluorescence polarization binding assay; inhibition, % at 35 µM; hit rate 0.94% among 290,000; AID 2012, 2009;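 active = 50% or more with normal probe brightness, or confirmed in later tests; inconclusive = above 50% with abnormal brightness, or retests that disagree; inactive = below 50% or failed in later tests; about a fifth of its hits are not listed in these tables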;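 note: calls also rest on retests at 20 µM and on dose response follow-up; 0% = protein and probe with vehicle and 100% = probe without protein; strong numbers were not always called active; many hits fall short of the cut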
MT1-MMP act inh: blockers of MT1-MMP proenzyme processing, primary screen, HT1080 RFP-PRO-GFP cells, GFP/RFP fluorescence. GFP/RFP ratio fluorescence, overnight; percent of plate control window, DMSO zero. Matrix metalloproteinase-14 (Homo sapiens), P50281. AID 651647, 2012. hit rate 0.061% among 360,000. GFP/RFP ratio change, % at 20 µM;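 active = GFP/RFP ratio change of at least 30% with cell ATP level not reduced by more than half and red fluorescence within 50% of control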; note: strong numbers were not always called active
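Assay system: HT1080 RFP-PRO-GFP cells. Benchmarks: DMSO vehicle wells and RFP-L50D-GFP reporter cell wells. Times: overnight cell settling, then overnight compound exposure, 37 °C, 5% CO2. Compound: 20 µM single dose, 1% DMSO. Read-out basis: GFP/RFP fluorescence ratio.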
PABP FP inh: PABP poly(A) RNA binding inhibitors, primary screen, biochemical, fluorescence polarization, uHTS; hit rate 1% among 290,000; Polyadenylate-binding protein 1 (Homo sapiens), P11940; inhibition, % at 35 µM;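 active = 50% or more with normal probe brightness, or confirmed in later tests; inconclusive = above 50% with abnormal brightness, or retests that disagree; inactive = below 50% or failed in later tests; about a fifth of its hits are not listed in these tables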;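 note: calls also rest on retests at 20 µM and on dose response follow-up; controls were probe without protein and protein plus probe with vehicle; some compounds called inactive have numbers as strong as hits; many hits fall short of the cut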
Env fusion inh: inhibitors of HIV-1 Env-driven cell-cell fusion, primary screen, HeLa-JRFL effector, CEM21 target cells, luciferase. inhibition, % at 12.3 µM. hit rate 1.1% among 360,000;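 active = mean replicate inhibition score of at least 50 and every replicate individually at or above 50; inconclusive = only one of the two criteria met; inactive = mean below 50 and not all replicates reaching 50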;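 note: 0% = plate neutral controls and 100% = maraviroc near 300 nM; one replicate is shown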
Rce1 inhib: yeast Rce1p protease inhibitors, primary screen, biochemical, fluorescence, cell-free homogeneous. CAAX prenyl protease 2 (Saccharomyces cerevisiae (strain ATCC 204508 / S288c)), Q03530. yeast membranes, quenched prenylated peptide cleavage fluorescence. calls only. hit rate 0.27% among 290,000;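 active = fall in fluorescence gain of 50% or more versus controls, with final raw signal at or below 3038400; inconclusive = same 50% fall but final raw signal above 3038400; inactive = fall in fluorescence gain under 50%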;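 note: plate controls were neutral control wells for no effect and wells lacking membranes for full effect; tested at 10 µM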
Target sequence (Q03530 whole entry, looked up): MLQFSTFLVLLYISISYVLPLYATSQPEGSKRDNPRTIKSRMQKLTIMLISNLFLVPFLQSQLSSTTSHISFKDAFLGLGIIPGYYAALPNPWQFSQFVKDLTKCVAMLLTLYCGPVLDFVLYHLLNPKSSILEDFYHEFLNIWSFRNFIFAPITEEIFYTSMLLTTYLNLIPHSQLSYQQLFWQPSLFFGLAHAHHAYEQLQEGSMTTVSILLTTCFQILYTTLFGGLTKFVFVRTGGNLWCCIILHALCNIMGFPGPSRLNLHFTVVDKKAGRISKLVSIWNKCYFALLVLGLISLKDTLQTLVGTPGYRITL
eIF4H FP inh retest: second read-out of eIF4H FP inh, no call of its own (marks repeat the call); inhibition, %; compound at 20 µM; confirmation average;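 mean of two retest wells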
PABP FP inh retest: recorded beside PABP FP inh, whose call it bears; inhibition, %; compound at 20 µM; confirmation repeats;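 mean of two retest wells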
MT1-MMP act inh RFP: also measured in MT1-MMP act inh; calls as there; RFP signal change, %; measured here: RFP expression control read;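 0 = vehicle wells; hits needed this value within 50% of zero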
* hit, by the source's call; i = inactive; ? = inconclusive; · = not tested or not shown; & = joins results of further samples.

SMILES	Yeast UUG start	CSC inhib	eIF4H FP inh	MT1-MMP act inh	MT1-MMP act inh RFP	PABP FP inh	Env fusion inh	Rce1 inhib	others
C[n+]1cnc(-c2ccccc2)cc1-c1ccccc1	-4	-7	-4	10	8	5	-31	i
O=C(c1ccc(-c2ccccc2)cc1)N1CCN(c2nc3ccccc3o2)CC1	-16	·	6	-2	0	12	14	·
O=C(Nc1cccc(C(F)(F)F)c1)c1cc(-c2ccco2)on1	-28	11	6	1	2	2	-3	i
O=C(NCCc1cccs1)c1cccs1	-3	-6	-5	1	2	-16	-2	i
Cc1cc(C(=O)CSc2nn3c(=O)c(C(C)(C)C)nnc3s2)c(C)n1-c1ccc(F)cc1	1	6	3	1	9	6	·	i
CCCS(=O)(=O)NC(=O)C1(C)CCN(C(=O)c2cccs2)C1 (stereo unspecified)	-16	·	·	2	9	·	-51	·
Cc1ccc(NC(=O)c2ccc(Cn3cc([N+](=O)[O-])cn3)cc2)c(C)c1	-5	-5	-8	3	-7	-10	·	i
CC(=O)N1N=C(c2ccncc2)OC1(Cc1ccccc1)Cc1ccccc1	·	14	5	-6	1	-1	14	i
COc1ccc(N2CCN(S(=O)(=O)c3c(C)noc3/C=C/N(C)C)CC2)cc1	-20	6	-15	-4	-2	-3	-9	i
C(=N\Nc1ncnc2nc[nH]c12)/c1cccs1	-22	4	-4	4	1	7	-13	i
CCOC(=O)c1csc(NC(=O)c2cc(-c3ccccn3)nc3ccccc23)n1	-15	-18	·	-5	1	·	·	·
COc1ccc(S(=O)(=O)Nc2ccccc2C(=O)N2CCCCC2)cc1C	-6	4	7	-4	-4	-3	-3	i

In the list so far, 2 contain a halogen:
SMILES	Yeast UUG start	CSC inhib	eIF4H FP inh	MT1-MMP act inh	MT1-MMP act inh RFP	PABP FP inh	Env fusion inh	Rce1 inhib	others
O=C(Nc1cccc(C(F)(F)F)c1)c1cc(-c2ccco2)on1	-28	11	6	1	2	2	-3	i
Cc1cc(C(=O)CSc2nn3c(=O)c(C(C)(C)C)nnc3s2)c(C)n1-c1ccc(F)cc1	1	6	3	1	9	6	·	i

Continuation:
SMILES	Yeast UUG start	CSC inhib	eIF4H FP inh	MT1-MMP act inh	MT1-MMP act inh RFP	PABP FP inh	Env fusion inh	Rce1 inhib	others
O=C(CNC(=O)COc1ccccc1)NCCN1CCOCC1	-14	·	·	4	7	·	-4	·
CCC(C(=O)Nc1cccc(C(F)(F)F)c1)c1ccccc1 (stereo unspecified)	25	8	-13	5	-6	-9	·	i
CCCc1cc(=O)[nH]c(SCC(=O)Nc2ccc3ccccc3c2)n1	-7	-7	·	4	-1	·	·	·
CN(CC(=O)Nc1ccc(Cl)c(C(F)(F)F)c1)C(=O)CNC(=O)C1CCCCC1	-1	-5	·	-1	1	·	8	·
CCOC(=O)c1cc(NC(=O)c2ccc(C)cc2)c(=O)oc1-c1ccccc1	-13	-9	-6	-1	-6	-6	?	i
CC1(CO)COC(c2ccccc2)=N1 (stereo unspecified)	-16	1	5	5	7	5	5	i
CC1CN(C(=O)CSc2nnc3c(Cl)cc(Cl)cn23)CC(C)O1 (stereo unspecified)	-22	-11	6	-1	1	9	·	i
CCN(C(=O)c1cc2c(=O)n3ccccc3nc2s1)C1CCCCC1	-4	·	-7	0	-1	10	10	i
CCn1c(-c2ccccc2Cl)nn(CC(=O)Nc2cc(Cl)ccc2Cl)c1=S	-4	7	-15	2	-9	-2	·	i
CC1CC(C)CN(C(=O)C2CCN(S(=O)(=O)N3CCC4(CC3)OCCO4)CC2)C1 (stereo unspecified)	-2	12	0	-1	4	-2	1	i
COc1ccccc1NC(=O)COC(=O)c1oc2ccccc2c1C	0	10	7	-1	1	4	-12	i
CCOC(=O)c1c(NC(=O)CN2C(=O)NC3(CCCCCC3)C2=O)sc(C)c1-c1ccc(C)cc1	·	17	2	-7	-7	-1	14	i
O=C(CN1CCN(c2ccccc2O)CC1)NC(=O)NCc1ccco1	·	-9	5	3	4	-3	16	i
CC1(Oc2cccc(F)c2)CCN(Cc2ccc(-c3ccccc3)o2)C1 (stereo unspecified)	-4	·	·	4	0	·	-12	·
Cc1c(O)ccc2cc(S(=O)(=O)c3ccccc3)c(=O)oc12	-10	-11	10	-8	-1	12	-1	i
CCOc1[nH]n(-c2ccccc2)c(=O)c1C=Nc1ccc(C(=O)OC)cc1	·	10	5	4	2	8	9	i
O=C(COC(=O)c1ccccc1-c1nc2ccccc2s1)Nc1ccccc1C(F)(F)F	-9	-3	2	-1	0	-2	0	i
NC(=O)c1sc2nc(N3CCOCC3)c3c(c2c1N)CCCC3	5	7	-3	3	-5	32	·	i
O=c1[nH]c2cccnc2n1Cc1ccco1	6	-3	2	2	5	6	·	i
O=C1OC(COCC#Cc2ccccc2)CN1c1ccccc1 (stereo unspecified)	-10	·	·	0	-3	·	-1	·
Cc1cccc(CN2CCN(CC(C)C)C(CCO)C2)n1 (stereo unspecified)	·	-7	1	-2	6	-4	-6	i
CCOc1ccccc1C(C(=O)NC1CCCC1)N(Cc1ccco1)C(=O)CNC(=O)c1ccco1 (stereo unspecified)	-13	5	4	-6	-3	12	·	·
NC(=S)n1[nH]c(-c2ccccc2)c(N=Nc2ccccc2C(=O)N2CCOCC2)c1=O	·	-10	5	4	-1	10	2	·
CC1=C(CC(=O)c2ccccc2)C(=O)c2ccccc2C1=O	-31	-15	-8	-32	8	6	9	i
CCCC[n+]1ccn(C2=C([O-])c3ccccc3C(=O)/C2=N\S(=O)(=O)c2ccc(Br)cc2)c1	·	22	1	-3	-5	4	-14	i
COc1ccc(CNc2nc3c(c(=O)n(Cc4ccc(Cl)cc4)c(=O)n3C)n2C)cc1	-13	6	2	-11	-14	8	?	i
OCC[C@@H]1C[C@@H](O)[C@H](O)[C@]2(Cc3ccccc3CO2)O1	-10	-8	-4	1	5	-9	12	i
COC(=O)NCC(c1cccnc1)N1CCOCC1 (stereo unspecified)	-23	-12	-2	3	4	-5	3	i
CCCCN1C(=O)c2ccc(C(=O)NC3(C)CCS(=O)(=O)C3)cc2C1=O (stereo unspecified)	-6	-14	·	0	4	·	4	·
CCc1ccc(/C=N/NC(=O)c2cc(C3CC3)nc3ccc(Br)cc23)s1	-3	-9	2	13	-13	-5	3	i
CCOCCCNC(=O)C(NC(=O)c1ccc(=O)[nH]c1)c1ccc(C)cc1 (stereo unspecified)	-2	-2	0	-1	3	-6	2	i
O=C(N/N=C\c1ccc(Cl)cc1)C1=NOC2COC3(CCN(c4ccc([N+](=O)[O-])cc4)CC3)OCC12 (stereo unspecified)	-13	5	7	11	-29	-9	6	i
O=C1CCN(S(=O)(=O)c2ccccc2)CCN1CCOCc1ccccc1	3	5	-3	-2	-1	4	-2	i
O=C(NNS(=O)(=O)c1ccc(F)cc1)C1CCN(S(=O)(=O)c2ccccc2)CC1	·	3	9	-1	-3	-1	13	i
N#CC(C(=O)NC1CC1)c1nc2ccccc2nc1N1CCCC1 (stereo unspecified)	-3	15	37	-12	5	66	·	i	eIF4H FP inh retest=29;PABP FP inh retest=38
CCOCCCNC(=O)c1ccccc1NC(=O)C1=C(C)OCCS1	96	-5	0	-1	1	6	-9	i
CCN1CCN(CC(O)COC(C)C)CC1 (stereo unspecified)	-21	6	-13	3	3	-2	-55	i
COc1ccc(C2N(c3ccccc3)CCN2c2ccccc2)cc1O	·	-7	-7	1	0	-4	-10	i
Cc1nn(CC(=O)N2CCC(C)CC2)c(=O)c2cccn12	-21	-1	-9	-6	-4	-6	3	i
COc1ccc(C2C(C#N)=C(N)N(c3ccccc3)C3=C2C(=O)CCC3)cc1Cn1cc([N+](=O)[O-])cn1 (stereo unspecified)	-6	4	12	-14	-14	12	-31	i
O=[N+]([O-])c1cc(S(=O)(=O)N2CCCC2)ccc1OCc1ccccc1	0	18	-13	-2	-5	-2	6	i
C=CCN1C(=O)CSc2ccc(C(=O)NCc3ccco3)cc21	-2	-5	-5	-2	-2	-3	10	i
O=c1oc2ccccc2nc1/C=C(\O)c1ccc(Br)cc1	-2	-4	18	-2	3	14	·	i
O=C1N(c2ccccc2)C[C@@H]2C[C@@H](c3cc4ccccc4o3)N3CCC[C@@]123	·	·	-5	-17	-7	-3	76*	i
COc1ccc(Nc2nc(N3CCOCC3)nc(N3CCOCC3)n2)c(OC)c1	9	4	4	6	2	9	20	i
CCCCCCSc1ccc(-c2nc3cc(C)ccn3c2NC2CCCCC2)cc1	-10	52	·	0&8	-27&-23	·	?	·
COc1cccc(/C=N/Nc2cc(C)nc(-c3ccccc3O)n2)c1O	·	12	10	-16	-14	-3	36	·
O=C(c1[nH]ncc1[N+](=O)[O-])N1CCOCC1	-3	8	-7	-2	4	6	-6	i
Nc1cc(S(=O)(=O)Nc2cc(Cl)ccc2Cl)ccc1N1CCOCC1	-6	-5	66	8	-13	-6	-30	i	eIF4H FP inh retest=-6;PABP FP inh retest=2
O=C(CN1CCN(Cc2ccccc2Cl)C1=O)NCc1cccnc1	-12	-14	-4	1	-2	-6	-2	i
O=C(CCCCCn1c(=O)[nH]c2ccsc2c1=O)NCc1ccc(F)cc1	-7	-15	-4	9	1	2	-54	i
CCCNC(=O)c1nc(C)c(C)nc1C(=O)Nc1cccc(Cl)c1	-2	-4	0	0	5	-3	-1	i
COc1ccc(C)cc1S(=O)(=O)N1CCN(C)CC1c1ccccc1 (stereo unspecified)	-9	-23	·	5	2	·	17	·
CCc1cccc(NS(=O)(=O)c2csc(C(N)=O)c2)c1	0	-12	-13	-1	-16	-8	12	i
COc1ccc(C(=O)/C=C(\C)NCc2ccc3c(c2)OCO3)cc1	-3	1	1	3	2	1	·	i
COc1ccccc1N1CCN(C(=O)CCCCn2c(=O)[nH]c3ccsc3c2=O)CC1	-8	-9	-9	6	0	4	10	·
OCC1(Cc2ccc(F)cc2)CCCN(CCc2ccccc2)C1 (stereo unspecified)	-16	32	0	1	3	-10	10	i
CCNC(=O)c1ccccc1SCC(=O)Nc1ccc(F)cc1	-17	-5	6	-3	-3	0	6	i
CC1(C(=O)NCc2ccccc2Br)CCN1Cc1ccc(-c2ccccn2)cc1 (stereo unspecified)	0	·	·	4	-16	·	12	·
Cc1ccsc1/C=C/C(=O)O	-17	3	3	2	-1	-9	8	i
Going on with the list:
SMILES	Yeast UUG start	CSC inhib	eIF4H FP inh	MT1-MMP act inh	MT1-MMP act inh RFP	PABP FP inh	Env fusion inh	Rce1 inhib	others
C=CCn1c(=N)n(CC(=O)c2ccc(Br)cc2)c2ccccc21	-12	-6	-5	-1	3	-4	10	i
CCC(=O)Nc1ccccc1C(=O)OCC(=O)c1cccc2ccccc12	-10	13	0	0	-2	-4	-136	i
COc1ccc(NS(=O)(=O)c2ccc(C)cc2)c([N+](=O)[O-])c1	-5	13	-4	7	-3	1	16	i
C=CCn1c(Sc2nc(C)cs2)nc2c1c(=O)[nH]c(=O)n2C	-1	-1	6	-1	3	-6	-64	i
COc1ccc(N(CC(=O)Nc2ccc(C)cn2)S(=O)(=O)c2c(C)nn(C)c2C)cc1	-7	-11	-16	8	6	3	-28	·

Screening results as filed in PubChem.
